Mtb growth: M. tuberculosis H37Rv growth inhibitors, H37Rv strain (AID 1626); inhibition, % at 10 µM; hits with a dose series show IC50 in µM; 0.95% of 220,000 active; M. tuberculosis H37Rv growth inhibition; higher % means a stronger effect;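 active means confirmed in a dose series; inconclusive means inhibition above 80% but not taken into the dose series; inactive means below 80% or under 30% at every dose of the series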;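 further: bacteria incubated seven days before Alamar blue readout; 0% = bacteria only wells and 100% = bacteria with antibiotic wells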
RecA splice inh: Mtb RecA intein splicing inhibitors, primary screen, biochemical, fluorescence, HTS; Protein RecA (Mycobacterium tuberculosis (strain ATCC 25618 / H37Rv)), P9WHJ3; cell-free RecA intein splicing; inhibition, %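 (about 9 µM by stock and volumes)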; 0.75% of 290,000 active; in the data active means inhibition above about 30%; inconclusive means no clear call, values can overlap the other calls;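 further: 0% = vehicle wells and 100% = reference inhibitor control wells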
Target sequence (P9WHJ3 whole entry, looked up, canonical isoform): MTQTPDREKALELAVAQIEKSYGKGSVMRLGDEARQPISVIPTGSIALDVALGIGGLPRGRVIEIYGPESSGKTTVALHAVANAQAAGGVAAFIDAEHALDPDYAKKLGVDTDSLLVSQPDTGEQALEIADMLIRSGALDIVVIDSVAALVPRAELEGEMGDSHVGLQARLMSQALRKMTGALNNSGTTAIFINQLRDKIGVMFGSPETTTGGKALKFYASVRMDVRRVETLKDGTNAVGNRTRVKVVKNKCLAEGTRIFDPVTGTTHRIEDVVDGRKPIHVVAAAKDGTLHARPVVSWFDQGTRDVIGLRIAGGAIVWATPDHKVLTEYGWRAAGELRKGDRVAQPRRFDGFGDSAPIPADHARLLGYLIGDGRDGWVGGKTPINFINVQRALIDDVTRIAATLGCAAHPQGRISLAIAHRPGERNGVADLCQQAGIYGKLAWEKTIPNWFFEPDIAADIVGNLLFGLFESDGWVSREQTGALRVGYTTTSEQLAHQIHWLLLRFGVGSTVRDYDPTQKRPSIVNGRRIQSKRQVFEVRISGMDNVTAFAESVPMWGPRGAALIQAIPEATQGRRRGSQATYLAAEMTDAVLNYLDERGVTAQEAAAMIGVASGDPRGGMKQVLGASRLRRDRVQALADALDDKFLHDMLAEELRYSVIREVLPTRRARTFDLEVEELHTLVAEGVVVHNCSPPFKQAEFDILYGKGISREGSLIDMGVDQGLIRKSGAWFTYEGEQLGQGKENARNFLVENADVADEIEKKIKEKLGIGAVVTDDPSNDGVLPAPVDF
Mtb bLac sens: beta-lactam sensitization of Mtb H37Rv, H37Rv. M. tuberculosis H37Rv growth with meropenem, percent inhibition; hits of this screen are not shown here. inhibition, % at 25 µM. 0.27% of 330,000 active. AID 434955, 2010;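 active means about 74% or more and at least 40 points above the plate without the antibiotic, then above 30% in a dose series; inconclusive means first-round hits that could not be retested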;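 further: growth measured after seven days incubation then overnight dye step; 0% = bacteria only wells and 100% = bacteria with antibiotic; twin plates without the antibiotic show which effects depend on it; some results filed as inactive read as strong as hits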
Arbovirus inh: antivirals against arbovirus infection, primary screen, cell-based, full library, 10K replicate subset | arbovirus infection cell-based antiviral screen | 0.37% of 200,000 active | inhibition, % at 10 µM;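 active means inhibition from about 30%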;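 further: bluetongue infection of BSR cells; cell survival read as ATP light after 72 h; 0% = infected wells without compound and 100% = uninfected wells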
YopH inh: YopH tyrosine phosphatase inhibitors, primary screen, biochemical, fluorescence Ex485/Em525; YopH tyrosine phosphatase [Yersinia enterocolitica]; inhibition, %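 (about 10 µM by stock and volumes)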; 0.16% of 140,000 active; AID 898, 2007;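 active means inhibition of 50% or more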;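 further: controls were vehicle for no effect and minimum signal wells for full effect; inactives centre near -20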
Arbovirus inh repeat: further read-out of Arbovirus inh, marked with its call; inhibition, %; measured here: 10K subset replicate screen; many hits read low in the repeat;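 first of two repeat runs on a subset; 0% = infected and 100% = uninfected wells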
An asterisk follows results filed as active; ? = inconclusive; · = no result given; & = joins results of further samples. This is a subset, so the mix of outcomes need not match the whole.

SMILES | Mtb growth | RecA splice inh | Mtb bLac sens | Arbovirus inh | YopH inh | others
O=C(COC(=O)c1cc[n+]([O-])cc1)NCC12CC3CC(CC(C3)C1)C2 | 2% | · | 3 | 6 | -22
O=[N+]([O-])c1ccc(NCCCN2CCOCC2)nc1 | · | 0.6 | -2 | · | ·
CC(=O)OC12CC3CC(C1)C(=NO)C(C3)C2 | -19% | -2.4 | -4 | 9 | -21
CCOC(=O)N1CCC(n2c(SCC(=O)c3ccccc3)nc3ccsc3c2=O)CC1 | -2% | -0.1 | -2 | -2 | -15
Cc1ccc2nc(N3CCN(CCO)CC3)nc(-c3ccccc3)c2c1 | · | -269 | 7 | · | ·
CCCC(C)C1(CC)C(=O)NC(=Nc2ccc(OC)cc2)NC1=O (centres undefined) | -2% | -1.8 | -3 | -13 | -22
CC(=O)c1ccc(NC(=O)CSc2nccn2CCc2ccccc2)cc1 | -1% | 0.0 | 0 | -1 | -15
c1ccc2c(NC3C4CC5CC(C4)CC3C5)nc(N3CCOCC3)nc2c1 (centres undefined) | 1.9µM* | 2.9 | 100 | -39 | ·
Cc1cccc(-n2cnc(C(=O)N3CCN(C)CC3)c2)n1 | 2% | 1.5 | 0 | 1 | ·
O=C(Nc1ccc2c(c1)OCO2)Nc1ccc(F)cc1F | · | -1.5 | -5 | · | ·
O=C1c2ccc(Oc3ccc([N+](=O)[O-])cc3)cc2C(=O)N1CCCO | · | -0.5 | 0 | · | ·
OCCCNc1nc(-c2ccc(Cl)cc2)nnc1-c1ccccc1 | 7% | -0.8 | -3 | -4 | -36
Cc1cccc(C(=O)N2CC(=O)Nc3ccc(F)cc3C2c2ccc(F)cc2)c1 (centres undefined) | · | -1.8 | -1 | · | ·
CN(CCCC(=O)Nc1ccccc1)S(=O)(=O)c1ccc(Cl)cc1 | · | 3.3 | 1 | · | ·
CC1CCCC(C)N1C(=O)COC(=O)C1CCN(S(=O)(=O)c2c(Cl)cccc2Cl)CC1 (centres undefined) | · | -2.6 | -10 | · | ·
c1ccc(CCNc2ncnc3c2nnn3Cc2ccccc2)cc1 | 1% | -1.2 | 33 | -10 | -22
CCCc1nc2ccc(N)cc2c(=O)n1Cc1ccccc1Cl | · | 0.3 | 2 | · | ·
COc1ccc(N2C(=O)/C(=C3/C=CC=CN3C)SC2=S)cc1 | -5% | -0.2 | -9 | 0 | -14
CC(NS(=O)(=O)c1ccc(Br)cc1)C(=O)NCCc1ccccc1 (centres undefined) | 6% | 0.6 | 6 | -7 | -6
CN(C)CCCCNCCCNC(=O)/C=N\O | -1% | 0.3 | 3 | 3 | -16
O=C(CSc1ncnc2c1cnn2-c1ccccc1)NC1CCCC1 | · | 0.4 | -1 | · | ·
CCN1C(=NCc2ccco2)N[C@@H](c2cccc(F)c2)C(C(=O)OC)=C1C | · | 0.5 | -17 | · | ·
CCCC12CN3CCN(CC(C3)/C1=N\NC(=O)c1ccc(C(C)(C)C)cc1)C2 | 6% | 2.8 | 5 | -7 | -26
CN(CC(=O)O)S(=O)(=O)c1cccs1 | -13% | -0.8 | 6 | -3 | -48
Cc1ccn2cc(-c3cccc(NC(=O)c4cccs4)c3)nc2c1 | 5% | -0.9 | 50 | -31 | ·

Compounds above that have two or more sulfur atoms (three):
SMILES | Mtb growth | RecA splice inh | Mtb bLac sens | Arbovirus inh | YopH inh | others
CCOC(=O)N1CCC(n2c(SCC(=O)c3ccccc3)nc3ccsc3c2=O)CC1 | -2% | -0.1 | -2 | -2 | -15
COc1ccc(N2C(=O)/C(=C3/C=CC=CN3C)SC2=S)cc1 | -5% | -0.2 | -9 | 0 | -14
CN(CC(=O)O)S(=O)(=O)c1cccs1 | -13% | -0.8 | 6 | -3 | -48

The listing continues:
SMILES | Mtb growth | RecA splice inh | Mtb bLac sens | Arbovirus inh | YopH inh | others
C=CCn1c(SCC(=O)Nc2ccc(S(N)(=O)=O)cc2)nnc1-c1cnccn1 | · | -4.1 | 3 | · | ·
CCc1ccccc1OCCCCN1CCCC1 | · | -1.6 | -5 | 8 | -108
CCOc1ccc2[nH]c(=O)c(CN(CCc3ccccc3)C(=O)N3CCCC3)cc2c1 | 4% | · | 2 | 3 | -30
C=CCn1c(-c2c[nH]c3ccccc23)n[nH]c1=S | 5% | 2.1 | -2 | 6 | -12
COc1cccc(/C=C2\SC(=O)N(CC(=O)NC3C=CS(=O)(=O)C3)C2=O)c1 (centres undefined) | · | 0.1 | ? | · | ·
O=C(CCCOc1ccccc1)N1CCc2ccccc2C1 | -8% | 4.7 | 3 | 4 | -22
CCN(CC(=O)Nc1c(F)cccc1F)C(=O)c1ccc2ccccc2n1 | · | -3.8 | 1 | · | ·
COC(=O)c1ccc(NC(=O)CCc2nnc3ccc(NCc4ccco4)nn23)cc1 | · | -0.4 | -2 | · | ·
CCOc1ccccc1OCCC(=O)NNC(=O)Cn1nc(C)cc1C | · | -1.4 | -1 | · | ·
OC1(c2cccc(C(F)(F)F)c2)CCN(c2ncnc3c2[nH]c2ccccc23)CC1 | · | 4.4 | -3 | -45 | -33
CCOC(=O)C[C@H]1c2cc(F)ccc2S(=O)(=O)N1Cc1ccc(OC)cc1 | -3% | 0.4 | -13 | · | ·
COc1cc(C2NC(=O)C(C#N)=C(S)N2c2ccccc2)ccc1OC(C)C (centres undefined) | -7% | -2.1 | -2 | -5 | -30
Cc1[nH]ncc1-c1ccccc1Cl | 4% | 2.9 | 21 | · | ·
CCOC(=O)N1CCN(C(=O)c2ccc(N3CCCC3=O)cc2)CC1 | -5% | 1.9 | 3 | 2 | 2
c1ccc(C[C@H]2CNCCN2CCC23CC4CC(CC(C4)C2)C3)cc1 | · | 2.7 | 8 | · | ·
COC(=O)C1=C(C)NC(c2c(O)ccc3ccccc23)C(C(=O)OC)=C1C (centres undefined) | -2% | -2.0 | -1 | -2 | -24
CCOC(=O)N1CCC(Nc2ccc3nnc(-c4ccccc4)n3n2)CC1 | 4% | 0.4 | 3 | -11 | -42 | Arbovirus inh repeat=-15
COCCCNC(=S)N1CCN(C(=O)C(=O)Nc2ccc(C(=O)OC)cc2)CC1 | 0% | 0.5 | -5 | 7 | -26
Cn1c(=O)n(C)c2cc(/C=C(/C#N)C(=O)NCc3ccco3)ccc21 | -9% | -0.6 | 2 | -5 | ·
Cc1cccc(CN2CCc3c([nH]c4ccccc34)C2CC(C)C)n1 (centres undefined) | · | -3.9 | -3 | · | ·
CN(C)C(=O)NC(O)C(Cl)(Cl)Cl (centres undefined) | 2% | -0.5 | 4 | 4 | 4
O=C(O)COc1ccccc1/C=N/NC(=O)c1cc(-c2ccc(F)cc2)nc2ccccc12 | 6% | 3.2 | -2 | 1 | ·
Cc1cc(C(=O)N2CCC(C(=O)O)CC2)c(C)o1 | 0% | -0.1 | -8 | · | ·
COC(=O)NNC(=S)Nc1cc(OC)ccc1OC | -2% | -0.1 | -13 | 13 | -12
CN1CCN(c2c(/C=N/O)c3ccccc3n2C)CC1 | · | 1.7 | 0 | · | ·

Among those listed so far, 3 contain a COOH group:
SMILES | Mtb growth | RecA splice inh | Mtb bLac sens | Arbovirus inh | YopH inh | others
CN(CC(=O)O)S(=O)(=O)c1cccs1 | -13% | -0.8 | 6 | -3 | -48
O=C(O)COc1ccccc1/C=N/NC(=O)c1cc(-c2ccc(F)cc2)nc2ccccc12 | 6% | 3.2 | -2 | 1 | ·
Cc1cc(C(=O)N2CCC(C(=O)O)CC2)c(C)o1 | 0% | -0.1 | -8 | · | ·

More records follow:
SMILES | Mtb growth | RecA splice inh | Mtb bLac sens | Arbovirus inh | YopH inh | others
COc1ccc(C(=O)NCc2nnc(SCC(=O)c3ccc(F)cc3)n2C)cc1OC | · | 0.5 | -2 | · | ·
COc1cc(C(=O)OCC(=O)NCc2ccc(F)cc2)cc(NC(=O)c2cccs2)c1OC | 63% | 4.9 | 75 | -5 | -13
O=C(Cn1cccc1C(=O)c1ccccc1)NCCCN1CCOCC1 | 5% | -2.2 | -5 | -1 | -50
CN(CC(=O)Nn1cnnc1)S(=O)(=O)c1ccccc1 | -5% | -0.7 | -6 | 10 | -8
CCOC(=O)c1cn(-c2ccccc2)nc1-c1ccncc1 | 3% | 0.6 | 11 | -23 | -19
Cc1c(NC(=O)C(C)OC(=O)c2ccc(NC(=O)CC#N)cc2)c(=O)n(-c2ccccc2)n1C (centres undefined) | · | -2.5 | -1 | · | ·
CN1CCC(=C2c3ccccc3C=Cc3ccccc32)CC1 | 3% | 0.8 | 10 | 0 | -39
O=C(NC(=S)Nc1ccc(N2CCOCC2)cc1)c1cccc([N+](=O)[O-])c1 | 4% | -1.5 | 7 | 8 | -7
COc1ccc(OC)c(CNC(=O)Cc2c(C(=O)O)[nH]c3ccc(Cl)cc23)c1 | -3% | -0.7 | 0 | 17 | ·
CCN(Cc1ccccc1)S(=O)(=O)c1ccc(C(=O)N(CCCN(C)C)c2nc3ccc(F)cc3s2)cc1 | · | 8.5 | 11 | · | ·
CN1CCN(C(=O)C2=C[C@@H](c3ccc(C(F)(F)F)cc3)C[C@@H](OCCCCO)O2)CC1 | -10% | 0.1 | -4 | -7 | ·
Cc1cccc(NC(=O)Cc2noc3ccccc23)c1C | 7% | -18 | 4 | -8 | -4
O=C(NNc1nc2cc3c(cc2s1)OCO3)c1ccc(F)cc1 | · | -4.7 | 0 | 0 | -37
Cc1cc(NS(=O)(=O)c2ccc(NC(=O)/C=C/c3ccc(C)o3)cc2)nc(C)n1 | -4% | 2.0 | 1 | 3 | ·
Cc1ccccc1C(=O)c1cccn1CC(=O)N1CCCCCC1 | -5% | -0.8 | -7 | 7 | -15
CCc1cccc(C)c1NC(=O)CSc1nnc(CCCOc2ccc(Cl)cc2Cl)n1C | 8% | 0.4 | 3 | 9 | -4
CN1CCN(c2ccc([N+](=O)[O-])c(SCCO)c2)CC1 | -3% | -0.9 | 3 | 5 | ·
Cc1ccc(Cl)cc1NC(=O)COC(=O)C1CCCC1 | 7% | -1.0 | 18 | 7 | -18 | Arbovirus inh repeat=8
CSCC[C@H](N)C(=O)N1CCC(C(=O)N[C@H](C)C(=O)NC(C)c2ccccc2)CC1 (some centres undefined) | · | -1.4 | -2 | · | ·
CCn1c(SCC(=O)Nc2nc(C)c(C)s2)nnc1-c1cccs1 | -8% | 0.9 | -1 | -7 | -23
O=C(CS(=O)(=O)Cc1ccccc1)NCCc1ccc(F)cc1 | · | -1.3 | -13 | · | ·
COC(=O)C1=C(C(=O)OC)[C@@H]2N(Cc3ccccc3)c3ccccc3[C@@]23C[C@@H](C(=O)OC)N(C(=O)NC(C)(C)C)C3=N1 | 4% | -1.2 | -2 | · | ·
Cc1cnn(-c2nc(-c3ccccc3)cc(-c3ccccc3)n2)c1 | 3% | 4.3 | · | -8 | ·
COCCN(C(=O)COC(=O)Cc1c[nH]c2ccccc12)c1c(N)n(Cc2ccccc2)c(=O)[nH]c1=O | · | -3.3 | -3 | · | ·
Cc1csc2ncc(C(=O)Nc3ccon3)c(=O)n12 | -12% | -0.9 | -4 | 4 | -8
O=Cc1cn(-c2ccccc2)nc1-c1cc2cc(O)ccc2oc1=O | 8% | -85 | 88 | 33* | -12
COc1ccccc1Nc1nc(N2CCOCC2)nc(N2CCOCC2)n1 | -8% | -1.8&1.5 | -3&-6 | · | ·

Retrieved by compound from above, 4 records:
SMILES | Mtb growth | RecA splice inh | Mtb bLac sens | Arbovirus inh | YopH inh | others
Cc1ccccc1C(=O)c1cccn1CC(=O)N1CCCCCC1 | -5% | -0.8 | -7 | 7 | -15
O=C(Cn1cccc1C(=O)c1ccccc1)NCCCN1CCOCC1 | 5% | -2.2 | -5 | -1 | -50
Cc1cccc(NC(=O)Cc2noc3ccccc23)c1C | 7% | -18 | 4 | -8 | -4
O=Cc1cn(-c2ccccc2)nc1-c1cc2cc(O)ccc2oc1=O | 8% | -85 | 88 | 33* | -12
